MLL AF4-AF9 inh: blocks AF4 peptide binding to human AF9 | AID 651704 | P42568 | AlphaScreen, biotin-AF4 peptide binding to FLAG-AF9 | inhibition, % at 10 µM | 0.47% of 350,000 active;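 active = every replicate reaching a set inhibition limit, whatever the replicate mean, cut at about 25% in these data; inconclusive = mean inhibition reaches that limit but some replicates miss it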;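 note: 0% = plate neutral control median and 100% = total signal loss; the record names both 10 and 1 µM as test concentration; the first replicate is given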
Vif A3G: inhibitors of Vif binding to APOBEC3G peptide, primary screen, biochemical, TR-FRET, GST-Vif 1-94, biotin-A3G peptide, dose response retest (AID 1117319) | TR-FRET GST-Vif / biotin-A3G peptide binding; higher % means a stronger effect; test concentration not given here; strong numbers were not always called active | 0.57% of 260,000 active | inhibition, %; hits with a dose series show IC50 in µM;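 active = above the screen mean plus three standard deviations and confirmed in dose response; inconclusive = results disagree or hit not tested in dose response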;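 note: Vif residues 1-94 fused to GST binding biotinylated APOBEC3G peptide 110-148; 0% = full assay without inhibitor and 100% = GST in place of GST-Vif; retest series ran down from 100 µM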
Ecoli growth: blocks Escherichia coli growth | 0.21% of 330,000 active | AID 1053175 | OD600, 23 h; stronger effect = lower value | OD600 absorbance (test concentration not listed);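 active = OD600 absorbance below the run mean of sample wells minus 3.6 SD, in any replicate, cut at about 0.56 in these data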;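 note: stock transfer was 300 nL into about 60 µL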
Ecoli rRNA inh: inhibitors of bacterial rRNA selective over humanized ribosomes; E. coli WT GFP vs humanized-ribosome RFP mutants, fluorescence, 24 h; stronger effect = lower value; DMSO median 0, no signal -100; GFP signal change (wild-type ribosome), % (concentration not given with the values); 1.6% of 350,000 active; AID 720706;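 active = significant combined selectivity score with lowered wild-type GFP, culture density cut under 30%, mutant RFP and density less affected; inactive = any of these conditions unmet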; note: one replicate is shown; some compounds called inactive have numbers as strong as hits
FGF22 binding: shifts melting point of recombinant human FGF22; AID 651658; recombinant FGF22 thermal shift, SYPRO orange fluorescence; percent of sucrose octasulfate shift, DMSO zero; 1.5% of 340,000 active; calls only at 9.99 µM; Q9HCT0;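 active = melting point raised past a set limit in the mean and every replicate; inconclusive = no clear call; three in four hits are not shown here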
Target sequence (Q9HCT0 whole entry, looked up): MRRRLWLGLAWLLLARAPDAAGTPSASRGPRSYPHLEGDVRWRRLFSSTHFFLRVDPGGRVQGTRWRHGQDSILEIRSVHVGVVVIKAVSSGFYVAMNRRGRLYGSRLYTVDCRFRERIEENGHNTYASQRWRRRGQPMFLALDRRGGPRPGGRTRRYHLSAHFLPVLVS
HNF4A DNA FP: change in binding of human HNF4 alpha to DNA. P41235. HNF4a-FITC DNA binding, fluorescence polarization, 1 h. activity change, % at 10 µM. 0.3% of 360,000 active. AID 1224865; in the data active = activity change above about 30%, passing the limit was not always enough;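 note: controls were the assay level and a saturating level of protein; the project sought stronger binding though the title names inhibitors; some compounds called inactive have numbers as strong as hits; positive values seem to mean higher polarization but the record does not say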
Target sequence (P41235 whole entry, looked up): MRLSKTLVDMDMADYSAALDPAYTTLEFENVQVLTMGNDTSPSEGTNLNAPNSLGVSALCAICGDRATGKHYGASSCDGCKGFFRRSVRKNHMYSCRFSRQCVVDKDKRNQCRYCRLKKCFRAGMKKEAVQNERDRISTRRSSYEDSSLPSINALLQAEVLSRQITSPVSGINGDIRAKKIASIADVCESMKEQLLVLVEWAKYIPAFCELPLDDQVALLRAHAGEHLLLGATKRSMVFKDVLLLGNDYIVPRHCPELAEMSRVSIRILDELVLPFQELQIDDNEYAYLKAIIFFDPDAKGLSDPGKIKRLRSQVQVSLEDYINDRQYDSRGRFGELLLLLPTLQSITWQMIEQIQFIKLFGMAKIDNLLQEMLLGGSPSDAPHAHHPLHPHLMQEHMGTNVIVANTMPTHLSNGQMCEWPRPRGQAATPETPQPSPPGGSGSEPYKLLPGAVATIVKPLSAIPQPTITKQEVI
ALR inh: human ALR oxidase inhibition via reduced H2O2. P55789. purified ALR, DTT oxidation, H2O2 HRP-luminol luminescence. inhibition, % (no concentration beside the values). 3.8% of 290,000 active. AID 485317;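 active = mean and each replicate at 75% or more; inconclusive = only one of the two met; inactive = neither met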;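 note: stock transfer was 7.5 nL into about 7.5 µL; 0% = neutral wells and 100% = wells with inactivated enzyme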
Target sequence (P55789 whole entry, looked up): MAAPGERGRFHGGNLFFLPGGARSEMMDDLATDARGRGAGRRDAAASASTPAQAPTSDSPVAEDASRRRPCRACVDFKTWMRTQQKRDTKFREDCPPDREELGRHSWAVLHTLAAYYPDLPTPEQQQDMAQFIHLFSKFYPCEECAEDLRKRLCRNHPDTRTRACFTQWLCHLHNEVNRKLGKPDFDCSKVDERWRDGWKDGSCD
Ecoli rRNA inh OD600: second read-out of Ecoli rRNA inh, no call of its own (marks repeat the call); OD600 change, %; measured here: OD600 growth;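 optical density of the mix in the first replicate; 0 = DMSO median and -100 = no signal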
Ecoli rRNA inh RFP: recorded beside Ecoli rRNA inh, whose call it bears; RFP signal change, %; measured here: RFP humanized mutant strains;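 first replicate; 0 = DMSO median and -100 = no signal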
The depositor's hits bear a star; i = inactive; ? = inconclusive; . = no result given; + = active, no number; & = joins results of further samples.

no.	MLL AF4-AF9 inh	Vif A3G	Ecoli growth	Ecoli rRNA inh	Ecoli rRNA inh OD600	Ecoli rRNA inh RFP	FGF22 binding	HNF4A DNA FP	ALR inh	SMILES
1	22	.	0.74	1	-4	0.0	i	-1.3	?	CCOC(=O)C(=O)C1=C(N2CCOCC2)/C(=C\c2cccc([N+](=O)[O-])c2)CC1
2	.	-3%&-2%	0.71	.	.	.	.	5.2	-7	CCN(CC)CCCNC(=O)c1sc2nc(-c3ccc(F)cc3)cn2c1C
3	-1.0	.	0.64	9	7	0.1	i	0.6	-1	CC1CN(CC(=O)NCc2ccc(Cl)cc2)CC(C)O1 (configuration not stated)
4	-1.4	.	.	.	.	.	i	-1.2	.	CC1(C(=O)NCCC#N)CCN1C(=O)C1(c2ccccc2)CCCC1 (configuration not stated)
5	.	-2%	0.69	.	.	.	.	2.3	-2	O=C(CSc1nnnn1-c1ccccc1)Nc1ccc(Cl)cc1
6	.	4%	0.69	.	.	.	.	-8.5	-1	COC(=O)CC1C(=O)NCCN1C(=O)NC1CCCCC1 (configuration not stated)
7	1.7	.	.	-1	-1	1.7	i	.	.	C[C@H]1CN([C@@H](C)CO)S(=O)(=O)c2ccc(-c3ccc(C#N)cc3)cc2O[C@@H]1CN(C)C
8	-5.5	-4%	0.67	-1	13	-0.1	i	0.3	7	COCCNC(=O)COCc1cc(-c2ccc3c(c2)OCO3)on1
9	-1.1	.	0.71	4	4	-0.6	i	-2.5	-32	Cc1nn(C)c(C)c1NC(=S)Nc1ccc(S(=O)(=O)Nc2ncccn2)cc1
10	-0.8	.	0.71	11	12	-0.5	i	1.8	.	CC1CCN(C(=O)CN2C(=O)NC3(CCC(C)CC3)C2=O)CC1 (configuration not stated)
11	-0.2	4%	0.66	22	31	3.7	i	1.6	-8	CCC(C)NC(=O)[C@@H]1CSC2c3ccccc3C(=O)N21 (some centres not stated)
12	-0.5	.	0.69	-8	-5	-1.4	i	-2.5	-4	Cc1cc(NC(=O)CSc2nnc(-c3cccc(Cl)c3)o2)no1
13	1.4	13%	0.71	11	15	1.4	i	3.3	-7	Cn1c(=O)oc2cc(S(=O)(=O)N3CCC(C(=O)N4CCc5ccccc5C4)CC3)ccc21
14	-1.0	.	0.72	5	5	2.1	i	1.4	.	O=C(CCCc1cccs1)Nc1nc(-c2ccc(F)cc2)cs1
15	-23	.	.	5	2	-1.1	+	.	.	O=C(N[C@@H]1C=C[C@H](CC(=O)N2CCCCC2)O[C@H]1CO)c1cccc(F)c1

Later entries:
no.	MLL AF4-AF9 inh	Vif A3G	Ecoli growth	Ecoli rRNA inh	Ecoli rRNA inh OD600	Ecoli rRNA inh RFP	FGF22 binding	HNF4A DNA FP	ALR inh	SMILES
16	-1.6	-1%	0.67	8	-1	-1.3	i	-4.0	-4	COc1ccc(CNC(=O)CCn2c(=O)oc3ccccc32)c(OC)c1
17	-1.2	.	.	-1	-4	2.2	i	.	.	COCC#Cc1ccc2c(c1)O[C@H](CN(C)C(=O)Nc1ccc(OC)cc1)[C@@H](C)CN([C@H](C)CO)S2(=O)=O
18	1.4	.	.	8	9	3.5	i	.	.	O=C(C(=O)N1CCN(C(=O)c2ccccc2C(F)(F)F)CC1)c1cccc(C(F)(F)F)c1
19	1.9	.	.	2	-4	-2.9	i	.	.	CCS(=O)(=O)N1CC2(CN[C@@H](CO)c3c2c2ccc(OC)cc2n3C)C1
20	-2.8	.	.	25	30	0.9	i	-2.2	.	CCCS(=O)(=O)NC(=O)C1(C)CCN(C(=O)Cc2ccc(F)cc2)C1 (configuration not stated)
21	0.3	.	0.65	15	11	0.6	i	-1.5	-7	Cc1nn(C)cc1CNCc1c(C(=O)N2CCCCC2)nc2c(C)cccn12
22	-6.0	.	0.69	6	11	-2.0	i	1.9	96*	Cc1csc(NC(=O)CSc2nccn2C)n1
23	3.7	16%	0.68	7	0	0.3	i	-0.3	3	Cc1ccc(CS(=O)Cc2ccc(C(=O)N3CCN(C4CCCCC4)CC3)o2)cc1 (configuration not stated)
24	.	4%&-7%	0.67	.	.	.	.	-1.9	3	Cc1ccc(N2C(=O)c3n[nH]c(C)c3C2c2ccco2)cc1 (configuration not stated)
25	-5.3	-1%	0.69	24	16	0.4	.	-1.4	.	COc1ccc(S(=O)(=O)Nc2cccnc2)cc1OC
26	-1.9	-19%	0.65	-9	-11	-4.4	i	-1.8	44	CCCNC(=O)N1CCC(c2nc3ccccc3s2)CC1
27	7.4	.	0.71	-12	-19	3.5	i	-3.2	-2	Cc1c(C)c2ccc(OCC(=O)N3CCN(c4cccc(Cl)c4)CC3)cc2oc1=O
28	.	23%	.	.	.	.	.	0.7	-3	COCCNC(=S)N/N=C/c1ccccc1C(=O)O
29	4.5	3%	0.64	0	7	-2.9	i	3.2	-2	COc1ccc(CCNC(=O)C2CCN(S(C)(=O)=O)CC2)cc1
30	-2.4	.	.	2	-7	-2.9	i	.	.	CCCN(C)C[C@H]1Oc2ncc(-c3cccc(C#N)c3)cc2C(=O)N([C@H](C)CO)C[C@H]1C

Remaining list, next part:
no.	MLL AF4-AF9 inh	Vif A3G	Ecoli growth	Ecoli rRNA inh	Ecoli rRNA inh OD600	Ecoli rRNA inh RFP	FGF22 binding	HNF4A DNA FP	ALR inh	SMILES
31	2.8	8%	0.64	20	34	0.3	i	-1.7	-11	O=C(COC(=O)c1n[nH]c(=O)c2ccccc12)c1ccc(Br)cc1
32	-1.7	.	.	3	15	-1.7	i	.	.	Cc1noc(C)c1S(=O)(=O)Nc1ccc2c(c1)CC(=O)N([C@H](C)CO)C[C@@H](C)[C@@H](CN(C)C(=O)NC(C)C)O2
33	.	27%	0.68	.	.	.	.	-1.4	-4	O=C(CSCc1ccccc1)N1CCc2ccccc21
34	.	?	0.66	.	.	.	.	-2.2	-2	Cc1c(C(=O)N2CCOCC2)[nH]c2c1C(=O)CC(c1ccccc1Cl)C2 (configuration not stated)
35	.	8%	0.79	.	.	.	.	0.5	-1	Cc1c(C#N)c(N)c(C(=O)c2ccccc2)n1Cc1ccccc1
36	2.0	.	.	-6	-16	2.0	i	.	.	O=C(C[C@@H]1C[C@@H]2c3cc(NS(=O)(=O)c4ccc(F)cc4)ccc3O[C@@H]2[C@@H](CO)O1)N1CCc2ccccc2C1
37	0.0	.	0.66	-4	-1	-2.5	i	-1.0	.	O=c1c2c3c(sc2nc(NCCO)n1-c1ccccc1)CCCC3
38	0.1	11%	0.7	1	-10	1.2	i	2.8	68	C=CCNc1nc(-c2ccc3c(c2)OCCO3)cs1
39	.	23%	0.73	.	.	.	.	-0.1	1	Cn1nc(C(=O)Nc2c(-c3ccccc3)nc3sccn23)c2ccccc2c1=O
40	.	-14%	0.68	.	.	.	.	-1.0	-6	Cc1ccc2[nH]c(=O)c(CN(Cc3ccccc3Cl)C(=O)N3CCOCC3)cc2c1
41	2.4	.	0.69	2	21	2.4	i	-5.1	-4	O=C(CC1C(=O)NCCN1Cc1cccc(F)c1)NCCCCCN1CCOCC1 (configuration not stated)
42	.	2%	0.7	.	.	.	.	13	.	CCC1(C(=O)OC)NC(c2ccco2)C2C(=O)N(c3ccccc3)C(=O)C21 (configuration not stated)
43	.	-20%	0.72	.	.	.	.	0.3	-4	COC(=O)c1sc2ccccc2c1NC(=O)c1ccc(S(=O)(=O)N2CC(C)CC(C)C2)cc1 (configuration not stated)
44	12	.	.	-51	-67	8.9	i	2.0	.	Cc1cc(C(O)c2ncc(-c3ccc(Cl)cc3)[nH]2)ccc1F (configuration not stated)
45	2.7	-4%	0.74	-18	-13	0.1	i	4.3	-5	O=S(=O)(c1ccccc1)N(CC(O)COc1ccccc1)c1ccccc1 (configuration not stated)

(cont.)
no.	MLL AF4-AF9 inh	Vif A3G	Ecoli growth	Ecoli rRNA inh	Ecoli rRNA inh OD600	Ecoli rRNA inh RFP	FGF22 binding	HNF4A DNA FP	ALR inh	SMILES
46	.	-2%	0.58	.	.	.	.	1.5	4	O=C(Nc1ccc(OC(F)F)c(Cl)c1)c1cccc(OC(F)F)c1
47	7.9	.	.	-4	-1	2.4	i	.	.	C[C@@H]1CN([C@@H](C)CO)C(=O)c2cc(NC(=O)c3ccncc3)ccc2O[C@H]1CN(C)Cc1ccc(-c2ccccc2)cc1
48	-0.1	.	.	3	13	-2.1	i	.	.	COc1ccc2c3c([nH]c2c1)[C@H](CO)N(C)CC31CN(C(=O)C2CC2)C1
49	-33	-11%	0.67	-33	-47	-4.0	i	-2.2	.	CCCN(Cc1nnc(-c2ccccc2Cl)o1)C(=O)COc1ccc(Cl)cc1
50	1.5	-5%	0.68	-2	-1	-2.8	i	1.2	-6	COc1ccc(C(CNC(=O)CCNC(=O)c2ccccc2OC)N2CCCC2)cc1 (configuration not stated)
51	0.5	.	.	11	0	-0.4	i	2.0	4	Oc1ccc(-c2c(C3=CCCCC3)sc3ccccc23)cc1
52	0.9	.	.	-7	-55	19	i	.	.	COc1ccc(CN(C)C[C@@H]2Oc3ccc(NC(=O)Nc4ccc(F)cc4)cc3CC(=O)N([C@@H](C)CO)C[C@@H]2C)cc1
53	0.2	.	.	2	0	1.2	i	.	.	C[C@@H]1CN([C@@H](C)CO)S(=O)(=O)c2ccc(C#CC3CC3)cc2O[C@H]1CN(C)Cc1ccc(F)cc1
54	.	7%	0.78	.	.	.	.	-2.6	-13	Nc1nc(Nc2cccc(C(F)(F)F)c2)nc(C(F)(F)F)n1

10 compounds from above, ordered by count of non-hydrogen atoms, ascending:
no.	MLL AF4-AF9 inh	Vif A3G	Ecoli growth	Ecoli rRNA inh	Ecoli rRNA inh OD600	Ecoli rRNA inh RFP	FGF22 binding	HNF4A DNA FP	ALR inh	SMILES
51	0.5	.	.	11	0	-0.4	i	2.0	4	Oc1ccc(-c2c(C3=CCCCC3)sc3ccccc23)cc1
46	.	-2%	0.58	.	.	.	.	1.5	4	O=C(Nc1ccc(OC(F)F)c(Cl)c1)c1cccc(OC(F)F)c1
48	-0.1	.	.	3	13	-2.1	i	.	.	COc1ccc2c3c([nH]c2c1)[C@H](CO)N(C)CC31CN(C(=O)C2CC2)C1
42	.	2%	0.7	.	.	.	.	13	.	CCC1(C(=O)OC)NC(c2ccco2)C2C(=O)N(c3ccccc3)C(=O)C21 (configuration not stated)
49	-33	-11%	0.67	-33	-47	-4.0	i	-2.2	.	CCCN(Cc1nnc(-c2ccccc2Cl)o1)C(=O)COc1ccc(Cl)cc1
50	1.5	-5%	0.68	-2	-1	-2.8	i	1.2	-6	COc1ccc(C(CNC(=O)CCNC(=O)c2ccccc2OC)N2CCCC2)cc1 (configuration not stated)
43	.	-20%	0.72	.	.	.	.	0.3	-4	COC(=O)c1sc2ccccc2c1NC(=O)c1ccc(S(=O)(=O)N2CC(C)CC(C)C2)cc1 (configuration not stated)
53	0.2	.	.	2	0	1.2	i	.	.	C[C@@H]1CN([C@@H](C)CO)S(=O)(=O)c2ccc(C#CC3CC3)cc2O[C@H]1CN(C)Cc1ccc(F)cc1
52	0.9	.	.	-7	-55	19	i	.	.	COc1ccc(CN(C)C[C@@H]2Oc3ccc(NC(=O)Nc4ccc(F)cc4)cc3CC(=O)N([C@@H](C)CO)C[C@@H]2C)cc1
47	7.9	.	.	-4	-1	2.4	i	.	.	C[C@@H]1CN([C@@H](C)CO)C(=O)c2cc(NC(=O)c3ccncc3)ccc2O[C@H]1CN(C)Cc1ccc(-c2ccccc2)cc1

Screens (PubChem)

Some of the compounds tested; the hit share may differ from the screen's.
